High-throughput results (PubChem BioAssay)
PKD1 kinase inh = inhibitors of human PKD1 kinase, biochemical, fluorescence polarization | AID 797, 2007 | 200,000 compounds, 0.056% hits | inhibition, %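 (about 10 µM by stock and volumes)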 | Serine/threonine-protein kinase D1 (Homo sapiens), Q15139 | PKD1 kinase fluorescence polarization assay;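 active = inhibition of 50% or more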;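 note: controls were vehicle for no effect and a reference inhibitor for full effect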
HSV replic up = enhancers of HSV replication in host cells, fold increase, host cell viability; maximum fold increase; 220,000 compounds, 0.005% hits; AID 1956, 2009; HSV replication augmentation in cells;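 active = peak rise of 1.5-fold or more in the series; tested in PC3 cells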;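 note: first round at 10 µM; read as green reporter fluorescence; hits show the peak of a series up to 25 µM; 1 = signal of infected wells without compound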
GALR2 agonist = GALR2 receptor agonists, primary screen, cell-based. GALR2-expressing cells, agonist activation read-out. Galanin receptor type 2 (Homo sapiens), O43603. 140,000 compounds, 0.48% hits. activation, %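 (tested at 5 µM)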;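 active = above mean plus 3 SD of all compounds, about 5% in these data, not always enough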;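 note: 0% = vehicle buffer wells and 100% = reference agonist at full effect; tested in CHO reporter cells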
Target sequence (O43603 whole entry, looked up): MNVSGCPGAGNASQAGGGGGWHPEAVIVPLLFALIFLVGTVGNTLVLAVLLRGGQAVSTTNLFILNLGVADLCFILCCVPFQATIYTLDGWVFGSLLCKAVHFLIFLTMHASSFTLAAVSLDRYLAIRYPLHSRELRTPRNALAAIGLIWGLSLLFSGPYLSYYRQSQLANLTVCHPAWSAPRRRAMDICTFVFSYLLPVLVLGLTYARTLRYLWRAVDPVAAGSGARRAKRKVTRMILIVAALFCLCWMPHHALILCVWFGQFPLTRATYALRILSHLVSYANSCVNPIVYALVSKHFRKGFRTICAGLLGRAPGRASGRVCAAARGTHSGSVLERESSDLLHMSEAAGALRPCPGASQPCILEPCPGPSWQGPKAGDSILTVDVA
Insulin prom inh = inhibitors of insulin promoter-driven GFP, primary screen, imaging, TRM-6 cells (human fetal islet line), eGFP reporter, cell count | inhibition, % at 2 µM | 130,000 compounds, 0.9% hits | reporter expression induced with tamoxifen;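 active = inhibition above the mean plus 3 SD, with well images judged a real hit on visual review, cut at about 60% in these data, passing the limit was not always enough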
RGS16-Gao HTS = modulators of RGS16 binding to Galphao, primary screen, biochemical, human proteins, multiplexed bead flow cytometry; bead-based flow cytometry RGS16-Galphao binding, fluorescence; actives lie on both sides; binding response (% of control), % at 10 µM; 220,000 compounds, 0.38% hits; AID 1441, 2008;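 active = below 25% or above 175%, edge rows of some plates excepted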;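 note: Galphao activated by GDP with aluminum fluoride before binding; 100% = wells without compound and 0% = beads without RGS; some results beyond the cut were filed as inactive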
Target sequence (O15492 whole entry, looked up): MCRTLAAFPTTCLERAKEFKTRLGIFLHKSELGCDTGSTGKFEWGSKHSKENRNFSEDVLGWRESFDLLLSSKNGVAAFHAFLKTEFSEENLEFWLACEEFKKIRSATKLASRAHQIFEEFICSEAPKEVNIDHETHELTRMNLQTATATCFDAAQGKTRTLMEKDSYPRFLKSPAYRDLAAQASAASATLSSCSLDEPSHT
Target sequence (P09471 whole entry, looked up): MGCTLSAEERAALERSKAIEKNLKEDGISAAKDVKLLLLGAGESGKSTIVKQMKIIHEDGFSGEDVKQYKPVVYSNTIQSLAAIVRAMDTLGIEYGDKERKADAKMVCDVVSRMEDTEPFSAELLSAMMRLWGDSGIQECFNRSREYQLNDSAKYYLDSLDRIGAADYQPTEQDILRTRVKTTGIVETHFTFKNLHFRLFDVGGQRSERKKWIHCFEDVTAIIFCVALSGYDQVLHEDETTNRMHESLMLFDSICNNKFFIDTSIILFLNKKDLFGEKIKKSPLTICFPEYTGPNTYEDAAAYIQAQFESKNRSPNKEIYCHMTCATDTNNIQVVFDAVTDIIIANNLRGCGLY
Insulin prom inh cell count = recorded beside Insulin prom inh, whose call it bears; normalized cell count, %; measured here: cell count, toxicity; reference of the scale not given here;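 cells exposed to compound for 48 h; stained nuclei by imaging scaled within each plate; lower means fewer cells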
HSV replic up primary fold = recorded beside HSV replic up, whose call it bears; fold increase; compound at 10 µM; measured here: primary screen fold increase 10 uM; tested in PC3 cells;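 GFP signal in the first replicate; 1 = infected wells without compound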
Starred values were filed as active, the others as inactive; i = inactive; · = not tested or not shown.

no.	molecule	PKD1 kinase inh	HSV replic up	HSV replic up primary fold	GALR2 agonist
1	Cc1nc(N)sc1N=Nc1ccc(Br)cc1	9	i	0.94	-3.2
2	Cc1nc2ccccc2n1C1CC(=O)N(Cc2ccccc2)C1=O (centres undefined)	4	i	0.96	-1.4
3	CC(=O)c1nc(N2C(=O)C3CC=C(C)CC3C2=O)sc1C (centres undefined)	-5	i	1.3	-0.8
4	C=CCc1ccc(OCCCOc2ccc(C(=O)O)cc2)c(OC)c1	-1	i	0.83	·
5	CC(C)c1ccccc1NC(=O)COC(=O)Cc1cccc(C(F)(F)F)c1	2	i	0.89	-0.8
6	O=C(O)CCC(NC(=S)Nc1ccccc1)C(=O)O (centres undefined)	·	i	0.91	·
7	CCOC(=O)c1c(NC(=O)CSc2nnnn2C)sc(C)c1C	7	i	0.93	0.9
8	Cc1ccc(-n2sc3ccccc3c2=O)cc1S(=O)(=O)N1CCCCC1	-12	i	0.89	1.4
9	Cc1cc(-c2nn(-c3ccccc3F)cc2CN2CCN(c3ccccn3)CC2)c(C)s1	-1	i	0.89	·
10	CCOc1ccccc1NC(=S)NCCc1ccc(F)cc1	-3	i	0.93	·
11	COc1ccc2nc(SCC(=O)NCc3ccc4c(c3)OCO4)[nH]c2c1	-2	i	1	0.2
12	COc1ccccc1N1CCN(CC(=O)c2ccc3ccn(C(C)=O)c3c2)CC1	-5	i	1	-2.2
13	O=c1[nH]c2ccccc2c(O)c1-c1cc2ccccc2oc1=O	-6	i	0.86	·
14	COc1cc(S(=O)(=O)N2CCCC2)c(C)cc1C	-4	i	0.89	·
15	O=c1[nH]cnc(O)c1C(c1ccc(Br)cc1)c1c(O)nc[nH]c1=O	·	i	0.97	·

no.	Insulin prom inh	Insulin prom inh cell count	RGS16-Gao HTS
1	0	165	99
2	8	182	108
3	·	·	94
4	·	·	95
5	0	80	100
6	·	·	101
7	3	108	107
8	75*	37*	-12
9	·	·	87
10	·	·	109
11	-8	138	106
12	·	·	101
13	·	·	101
14	-7	133	97
15	·	·	103

(cont.)
no.	molecule	PKD1 kinase inh	HSV replic up	HSV replic up primary fold	GALR2 agonist
16	CCc1ccc(NC(=O)c2cc3c(C)nc4ccccc4c3o2)cc1	5	i	0.83	·
17	O=C(O)C1CCN1C1CCCCC1 (centres undefined)	-9	i	1	-0.5
18	O=C(COC(=O)c1ccc(Sc2ccccc2)c([N+](=O)[O-])c1)NC1CCCc2ccccc21 (centres undefined)	14	i	0.98	-1.4
19	COc1ccc(NC(=O)C2C3C=CC(O3)C2C(=O)NCc2cccnc2)cc1 (centres undefined)	-9	i	1.1	-0.8
20	CCc1cc2c(cc3c(=O)n(CC(=O)N4CCN(c5ccccn5)CC4)nc(CC)n32)s1	-6	i	0.71	-2.3
21	CCNc1nc(N)c(C(=C(C#N)C#N)c2ccccc2)s1	16	i	1	-0.8
22	OC1(c2cccc(C(F)(F)F)c2)CCN(Cc2nc(-c3cnccn3)no2)CC1	-3	i	0.94	·
23	O=C(Nc1ccc(-c2nc3ccccc3s2)c(O)c1)C1=COCCO1	-7	i	0.67	0.6
24	CCCc1ccc(O)c(N=Cc2cc(Br)cc(OCC)c2O)c1	2	·	·	·
25	O=C(N/N=C/c1ccccc1[N+](=O)[O-])c1ccc(CN2CCOCC2)cc1	0	i	0.95	-1.2
26	COC(=O)c1nn(-c2ccc3c(c2)CCN3C(C)=O)cc1O	-4	i	1	-0.2
27	CCN(CCO)c1ncnc2c1sc1nc(CC(C)C)c3c(c12)CC(C)(C)OC3	-2	i	1.1	-0.8
28	COc1ccc(OC)c(C(=O)COC(=O)c2ccc(C)o2)c1	-16	i	0.79	-1.0
29	CCOC(=O)c1c(-c2ccc(C)cc2)csc1NC(=O)c1cccc(N2C(=O)CCC2=O)c1	5	i	0.93	-0.5
30	COCCCNc1nc2nonc2nc1N1CCC(C(C)N2CCOCC2)CC1 (centres undefined)	-6	i	1.2	·

no.	Insulin prom inh	Insulin prom inh cell count	RGS16-Gao HTS
16	40	124	102
17	-27	99	107
18	6	149	104
19	0	85	106
20	·	·	109
21	16	111	92
22	·	·	101
23	-52	129	103
24	57	122	95
25	20	81	174
26	-8	109	70
27	12	20	100
28	-18	137	103
29	-25	149	101
30	·	·	102

New compounds follow:
no.	molecule	PKD1 kinase inh	HSV replic up	HSV replic up primary fold	GALR2 agonist
31	COc1cc(NC(=O)C(=O)NCCN2CCNCC2)c(OC)cc1Cl	-5	i	0.72	·
32	CCNc1nc(NC(C)CC)nc(ON=C(C)C)n1 (centres undefined)	0	i	1	·
33	C=CCOC(=O)C1=C(C)NC(SCC(=O)Nc2ccccc2)=C(C#N)C1c1ccco1 (centres undefined)	0	i	0.97	-1.5
34	Cc1nc2ccc(Cl)cn2c1C(=O)NN	-3	i	0.8	·
35	CC(C)(C)c1ccc(C(=O)Cn2nc(C(=O)O)c3ccccc3c2=O)cc1	·	i	0.88	·
36	NC(=O)C(=O)N/N=C/c1cccc(C(F)(F)F)c1	-2	i	0.95	·
37	COc1ccc(N=C2SC(C(=O)O)CC(=O)N2Cc2ccc(OC)c(OC)c2)cc1 (centres undefined)	-9	i	0.92	-1.8
38	O=C(CCC(=O)OCc1ccc(Br)cc1)Nc1ccccc1	1	i	0.92	-1.2
39	COC(=O)c1c(NC(=O)C2SC(=NC3CCCCC3)C(C(N)=O)=C2N)sc2c1CCCC2 (centres undefined)	-3	i	0.94	2.4
40	Cc1ccc(C2C3=C(CC(C)(C)CC3=O)Nc3n[nH]c(C)c32)cc1 (centres undefined)	-7	i	1	-1.9
41	Cn1nnnc1NCc1ccc(Cl)cc1	-6	i	1	·
42	Cc1nonc1NC(=O)CSc1nnc(-c2ccoc2C)n1C	-7	i	1.1	-1.4
43	O=C(Nc1ccc2c(c1)OCO2)c1ccc(N2C(=O)c3ccccc3C2=O)cc1	2	i	1.1	-2.5
44	O=C(NCc1ccncc1)C(=O)NCC1OCCCN1S(=O)(=O)c1ccccc1 (centres undefined)	5	i	0.89	-0.7
45	CCOc1ccc(N(CC(=O)Nc2ccccc2C)S(=O)(=O)c2c(C)noc2C)cc1	0	i	0.56	-0.3

no.	Insulin prom inh	Insulin prom inh cell count	RGS16-Gao HTS
31	19	123	100
32	·	·	105
33	-12	147	104
34	6	27	101
35	·	·	103
36	·	·	108
37	-264	23	101
38	-18	77	108
39	·	·	101
40	15	94	98
41	23	87	107
42	42	93	102
43	25	72	127
44	·	·	42
45	·	·	60

The list continues:
no.	molecule	PKD1 kinase inh	HSV replic up	HSV replic up primary fold	GALR2 agonist
46	O=C(COC(=O)c1ccc(S(=O)(=O)N2CCOCC2)cc1)Nc1nc(-c2ccccc2)cs1	-4	i	1	-4.1
47	C=CCSc1n[nH]c2nc3c(c(=O)n12)C1(CCCC1)Cc1ccccc1-3	0	·	·	-1.1
48	COc1ccc(CC(=O)NNC(=O)CCc2ccccc2)cc1OC	0	i	0.97	·
49	CCOC(=O)c1cnc2ccc(C)cc2c1Sc1ccccc1C(=O)OC	-4	·	·	-1.9
50	CC(=O)Nc1ccc(S(=O)(=O)NCCSCc2ccco2)cc1	2	i	0.91	-2.1
51	CCNS(=O)(=O)c1ccc2c3c(cccc13)C(=O)N2	0	i	0.95	-1.7
52	N/C(=N\OS(=O)(=O)c1cc(Cl)ccc1Cl)c1ccncc1	1	i	0.99	-2.3
53	O=C1CC(NCc2cccs2)C(=O)N1c1ccc(Cl)cc1 (centres undefined)	-2	i	0.82	-1.1
54	Cc1ccc(N(CC(=O)N/N=C/c2cccc(Br)c2)S(C)(=O)=O)cc1	-9	i	0.93	0.3
55	O=C(CCN1C(=O)c2ccccc2C1=O)Nc1ccncc1	-4	i	0.89	-0.7
56	Cn1c(=O)c2c(nc(CN3CCN(CCO)CC3)n2CCc2ccccc2)n(C)c1=O	-8	i	0.94	·
57	Cc1cc(NC(=O)c2ccc(NC(=O)C3CC3)cc2)no1	-4	i	1.1	·
58	CC(=O)Nc1nc(C)c(-c2csc(Nc3ccc(S(N)(=O)=O)cc3)n2)s1	·	i	0.85	·
59	CCOc1ccc(-n2c(C)c(C(C)=O)c(C(C)=O)c2C)cc1	-8	i	1.1	-1.0
60	O=C(COc1ccccc1[N+](=O)[O-])N/N=C/c1cccc(OC(=O)c2ccc3c(c2)OCO3)c1	8	i	1.1	-0.9

no.	Insulin prom inh	Insulin prom inh cell count	RGS16-Gao HTS
46	10	97	78
47	-32	75	99
48	-8	128	97
49	·	·	102
50	·	·	133
51	15	123	113
52	-21	155	89
53	-35	112	103
54	-22	91	102
55	-6	95	99
56	·	·	95
57	·	·	101
58	·	·	85
59	-160	82	104
60	·	·	94

(next part)
no.	molecule	PKD1 kinase inh	HSV replic up	HSV replic up primary fold	GALR2 agonist
61	Cc1ccc(NC(=O)c2ccc(Cn3cc(Br)cn3)o2)cc1	-5	i	0.88	-0.7
62	COCCN(C(=O)CSc1nnc(C)n1-c1ccccc1)c1c(N)n(Cc2ccccc2)c(=O)[nH]c1=O	2	i	1	-1.1
63	O=C(NCCN1CCOCC1)c1c(F)c(F)c(F)c(F)c1F	-6	i	0.99	-3.0
64	COc1ccc(OCCC(=O)OCC(=O)NCc2ccc(F)cc2)cc1	-3	i	1	·
65	CCOCC(O)CNC(=O)c1ccc(OC2CCN(C(=O)c3cccnc3)CC2)cc1 (centres undefined)	·	i	0.93	·
66	CC(=O)Nc1cccc(NC(=O)C2CC3CCC2C3)c1 (centres undefined)	-17	·	·	-1.8
67	Nn1c(SCc2ccc(F)cc2)nnc1-c1cccnc1	·	i	1.1	·
68	CCN(CC)CCN1C(=O)c2oc3ccccc3c(=O)c2C1c1ccccc1 (centres undefined)	-12	i	0.83	-1.4
69	CC1(C)CC(=O)C2=C(C1)N(CCN1CCOCC1)C1=C(C(=O)CC(C)(C)C1)C2c1ccc(Cl)c([N+](=O)[O-])c1	-7	i	0.96	·
70	Cc1nc(NC(=O)C2CC3CCCC(C2)C3=O)sc1C (centres undefined)	1	i	0.97	-2.6
71	COc1ccc(NC2=C(C)C(=O)CC2)cc1	4	i	1	-0.8
72	Cc1ccn2c(Nc3ccccc3C)c(-c3cccnc3)nc2c1	-2	i	0.94	·
73	CCCc1nn2c(=O)cc(O)nc2s1	5	i	0.99	-1.9
74	O=C(NCc1ccccc1)c1onc(CSc2ccccc2)c1C(=O)NCC1CC1	·	i	0.86	·
75	COc1ccc(N2CCC(CNC(=S)Nc3ccc(C)cc3C)C2)cc1 (centres undefined)	·	i	1	·

no.	Insulin prom inh	Insulin prom inh cell count	RGS16-Gao HTS
61	-48	82	81
62	3	129	94
63	-260	80	101
64	·	·	95
65	·	·	97
66	-20	109	94
67	·	·	101
68	21	85	108
69	·	·	98
70	48	113	106
71	·	·	97
72	·	·	102
73	-63	119	101
74	·	·	110
75	·	·	99

(list continues)
no.	molecule	PKD1 kinase inh	HSV replic up	HSV replic up primary fold	GALR2 agonist
76	Cc1ccccc1NC(=O)c1cccc(S(C)(=O)=O)c1	13	i	1	·
77	COc1ccc(CNC(=O)C2CCC(CNS(=O)(=O)c3cccc4nsnc34)CC2)cc1 (centres undefined)	-8	i	0.58	-2.5
78	COc1ccc(-c2csc(NC(=O)Cc3cccc4ccccc34)c2C(=O)O)cc1	4	·	·	·
79	O=C(CCCn1c(=S)[nH]c2cc3c(cc2c1=O)OCO3)NC1CC1	-3	i	0.96	-2.0
80	CCOC(=O)CC(NC(=O)c1ccc(C)cc1)c1ccc(OC)cc1 (centres undefined)	0	i	0.92	·

no.	Insulin prom inh	Insulin prom inh cell count	RGS16-Gao HTS
76	50	121	109
77	·	·	101
78	-7	143	103
79	-4	86	97
80	27	120	105

5 consecutive entries from above, for reference:
no.	molecule	PKD1 kinase inh	HSV replic up	HSV replic up primary fold	GALR2 agonist
1	Cc1nc(N)sc1N=Nc1ccc(Br)cc1	9	i	0.94	-3.2
2	Cc1nc2ccccc2n1C1CC(=O)N(Cc2ccccc2)C1=O (centres undefined)	4	i	0.96	-1.4
3	CC(=O)c1nc(N2C(=O)C3CC=C(C)CC3C2=O)sc1C (centres undefined)	-5	i	1.3	-0.8
4	C=CCc1ccc(OCCCOc2ccc(C(=O)O)cc2)c(OC)c1	-1	i	0.83	·
5	CC(C)c1ccccc1NC(=O)COC(=O)Cc1cccc(C(F)(F)F)c1	2	i	0.89	-0.8

no.	Insulin prom inh	Insulin prom inh cell count	RGS16-Gao HTS
1	0	165	99
2	8	182	108
3	·	·	94
4	·	·	95
5	0	80	100
